# From PubChem
# HSD17B inh – inhibitors of human HSD17B10 dehydrogenase. Q99714. recombinant HSD17B10, NADH fluorescence kinetic; many of its hits are not listed in these tables. Potency, µM (series often up to 57.1 µM), inactives show top-dose activity change, negative = inhibition, hits mostly inhibitors. actives 7.6% (n = 75,000). AID 893; active means well fitted inhibition curve with a large enough effect; inconclusive means small, poorly fitted or top-dose-only effect; inactive means no such curve, though single readings can be large or run the other way;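 further: the protocol describes HADH2 (HSD17B10) and not the HSD17B4 of the title; nearly all actives have a fitted effect of over 70% in size; most hits overshoot -100% by far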
#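 Activity followed as NADH fluorescence increase (ex 360, em 450 nm) every 30 seconds for 4 min, using final 90 uM beta-hydroxybutyryl CoA and 1 mM NAD+. Recombinant His-tagged enzyme, 20 nM, pH 9.0 Tris buffer, 15 min compound preincubation.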
# An asterisk follows results filed as active; u = inconclusive; & = joins results of further samples; [ ] = remark or other dose. On the % scale 0 is the no-effect control and ±100 the full control effect; potency means the concentration at half of the fitted maximal effect.
compound,HSD17B inh
O=c1oc2ccccc2n1CCCCCn1c(=O)oc2ccccc21,6%
O=C(CSc1ccc2nnc(-c3ccc(F)cc3)n2n1)N1CCOCC1,20µM*
C/C(CCN1CCCCc2nc(C)c(C)cc21)=N\OC[C@@H](C)[C@H](OCc1ccccc1)C(C)C,-2%[11.4 µM]
Fc1ccc(COc2ccc(/C=N/n3cnnc3)cc2)cc1,-2%
O=C(Nc1nnc(-c2ccco2)s1)C1CC1,8%
COc1ccccc1-c1cc(C(=O)N2CCN(c3ccccc3OC)CC2)no1,5%
Cc1cn2c(-c3ccc(Cl)cc3)nnc2s1,4%
Cc1ccc(NC(=O)c2nc[nH]c2C(=O)N2CCCCC2)c(C(=O)c2ccccc2)c1,5%
COc1ccc(C2C(C(=O)N3CCOCC3)=C(C)NC3=C2C(=O)CC(C)(C)C3)c(OC)c1 (stereo not drawn),32µM*
COc1cccc(C2NC(=O)NC(C)=C2C(=O)Nc2cc(OC)ccc2OC)c1 (stereo not drawn),0%
Cc1noc(C)c1CSc1nc2ccccc2c(=O)n1-c1ccccc1,-6%
CCOC(=O)c1cc(S(=O)(=O)N2CCN(C(=O)OCC)CC2)cn1C,3%
CCN(CC)C(=O)Oc1ccc2c(=O)c(-c3ccc(OC)cc3)c(C)oc2c1,12%
CCOC(=O)N1CCN(C(=O)CCS(=O)(=O)c2ccc(Br)s2)CC1,-2%
CC(C)(C)n1ncc2c(=O)n(CC(=O)NCc3ccccc3Cl)cnc21,3%
COc1ccc2c(c1)O[C@H](c1cccc(C(F)(F)F)c1)[C@@H](O)C2=O,5%[11.4 µM]
CC1(C)CC(=O)c2sc(N3CCCCC3)nc2C1,-29%
CCCCCCCCCCCCCCCCCCOCC(O)CO (stereo not drawn),0%
O=C(NCc1ccco1)c1ccc(Cl)c(S(=O)(=O)N2CCOCC2)c1,3%
CCCCOc1cc(=O)[nH]c(=O)[nH]1,2%

# Among those listed so far, three have a Cl atom:
compound,HSD17B inh
Cc1cn2c(-c3ccc(Cl)cc3)nnc2s1,4%
CC(C)(C)n1ncc2c(=O)n(CC(=O)NCc3ccccc3Cl)cnc21,3%
O=C(NCc1ccco1)c1ccc(Cl)c(S(=O)(=O)N2CCOCC2)c1,3%

# (next part)
compound,HSD17B inh
CC1CCN(C(=O)c2cc(-c3ccccc3O)on2)CC1,2%
CCOC(=O)c1[nH]c2ccc(C)cc2c1NC(=O)CN1CCCCC1,20µM*
COc1ccc(CNc2ncncc2-c2ccccc2OC)c(OC)c1,-26%
COCc1nnc(NC(=O)CS(=O)(=O)Cc2ccccc2)s1,-14%
COc1ccc(N2CCN(C3CC(=O)N(Cc4ccc(N5CCCC5=O)cc4)C3=O)CC2)cc1 (stereo not drawn),1%
CSc1ccccc1NC(=O)c1ccccc1N(C)S(C)(=O)=O,11%
Cn1c(SCC(=O)N2CCc3ccccc32)nc2cccnc21,-2%
CC(C)Oc1ccc(C2C(C(=O)c3ccco3)=C(O)C(=O)N2Cc2cccnc2)cc1 (stereo not drawn),4%
CCN1C(=O)CC(c2ccco2)Sc2ccccc21 (stereo not drawn),-11%
Cc1nc2ccc(C(=O)c3ccccc3)cc2[nH]1,0%
CC1CCN(S(=O)(=O)c2cn(CC(=O)N3CCN(C)CC3)c(=O)c3ccccc23)CC1,6%
c1ccc(CNc2ccc3ccccc3n2)nc1,20µM*
COc1cccc(OCc2nnc(SCC(=O)OCc3ccccc3)o2)c1,-15%
CCCC(O)(CCN1CCOCC1)c1ccc(Br)cc1 (stereo not drawn),-7%
O=C(NC1CCN(Cc2ccccc2)CC1)c1ccc(I)cc1,5%
COc1nc(NCc2ccc(Cl)cc2)nc(OC)n1,10%
CC1C2CC(CC1(C)C)N(C(=O)Nc1ccc3nccnc3c1)C2 (stereo not drawn),32µM*
CC(C)C(OC(=O)c1cccs1)C(=O)NCc1ccco1 (stereo not drawn),-11%
CCN(CC)C(=O)COc1ccc(-c2nnc(N3CCCCC3)c3ccccc23)cc1,-7%
O=C(CN1CCN(c2ccccc2)CC1)Nc1nnc(-c2ccccc2)s1,-9%

# Five entries drawn at random from the list so far, as already listed:
compound,HSD17B inh
O=C(CN1CCN(c2ccccc2)CC1)Nc1nnc(-c2ccccc2)s1,-9%
COc1cccc(OCc2nnc(SCC(=O)OCc3ccccc3)o2)c1,-15%
O=C(NC1CCN(Cc2ccccc2)CC1)c1ccc(I)cc1,5%
c1ccc(CNc2ccc3ccccc3n2)nc1,20µM*
CC1CCN(S(=O)(=O)c2cn(CC(=O)N3CCN(C)CC3)c(=O)c3ccccc23)CC1,6%

# Other structures follow:
compound,HSD17B inh
CN(C)CCCNC(=O)Cc1ccc(Br)cc1,5%
CCNc1nc(N2CCCCC2)nc(-n2nnc(C(=O)OCC)c2C)n1,2%
Fc1ccc(-c2nnc3sc(-c4ccc5c(c4)OCO5)nn23)cc1,-11%
Cc1cccc(NC2SC(=O)N(c3ccccc3)C2=O)c1 (stereo not drawn),-3%
CSc1nc2ccccc2n1Cc1cccc(F)c1,-2%
CCOC(=O)c1cccc(NC(=O)CSc2nnc(-c3ccoc3C)n2CC)c1,-4%
CCC1CCCCN1CCCNC(=O)CC1Oc2ccc(C)cc2NC1=O (stereo not drawn),-10%
COC(=O)Cn1c(CCC(=O)O)ccc1-c1ccccc1,u
Cc1cccc(OCc2nc(C#N)c(NCCN(C)C)o2)c1,15%
Nc1cc(-c2nn[nH]n2)ccc1F,-15%
O=c1cc(-c2cccc(O)c2)oc2ccc(O)cc12,-1%
FC(F)(F)COc1nc(OCC(F)(F)F)nc(N2CCN(c3ccccc3)CC2)n1,-18%
O=C1CCc2cc(S(=O)(=O)NCCC(=O)N3CCN(c4cccc(Cl)c4)CC3)ccc2N1,1%
Cc1ccccc1C,0%&0%
CCC(C)(C)NC(=O)C1CCN(c2nc(C)cc(C)n2)CC1,u
CCC1(C)Cc2c(sc3nc(SCC(=O)O)[nH]c(=O)c23)CO1 (stereo not drawn),u
CCc1nc(C)cn1S(=O)(=O)c1ccc(Cl)c(Cl)c1Cl,-7%
O=C(c1cnn2c(C(F)(F)F)cc(-c3ccccc3)nc12)N1CCOCC1,-20%
COCc1nnc(NS(=O)(=O)c2ccc(NC(C)=O)cc2)s1,18%
Cc1ccccc1NC(=O)C1CCCN1S(=O)(=O)c1cccc2cccnc12 (stereo not drawn),0%
COc1ccc(CN(CCN(C)C)c2ncccn2)cc1,9%
CS(=O)(=O)c1nc(-c2cccs2)cc(C(F)(F)F)n1,25µM*
COc1ccc(CCNC(=O)c2cc(-c3cc(C)c(C)cc3O)n[nH]2)cc1OC,2%
COc1ccc2cc3c(N)c(C(=O)N4CCCC4)sc3nc2c1,6.3µM*
Cc1cccc(-n2c(O)c(C=NCCCN3CCOCC3)c3ccccc3c2=O)c1,10%
CCSc1nc2c(c(=O)[nH]1)C(c1cccnc1)C(C(=O)OC)=C(C)N2 (stereo not drawn),-5%
CCCNC(=O)CS(=O)Cc1nc(-c2ccccc2C)oc1C (stereo not drawn),5%
CCCC(=O)Nc1cccc(NC(=O)c2ccc3c(c2)OCO3)c1,1%
CCOCCCNc1nc2c([nH]1)c(=O)n(C)c(=O)n2C,9%
O=C(Cn1cc(/C=N/O)c2ccccc21)N1CCOCC1,16%
O=C(Cn1cc2c(n1)CCCC2)NCc1ccccn1,10%
O=C1c2cc([N+](=O)[O-])ccc2-c2ccc3c4ccc5c6c(ccc(c7ccc1c2c73)c64)C(=O)c1cc([N+](=O)[O-])ccc1-5,u
COc1ccc(S(=O)(=O)Nc2cccc(NC(C)=O)c2)cc1,9%
CCC12CC3CC(C1)CC(C(=O)Nc1nn[nH]n1)(C3)C2,12%
COCCNC(=O)C1CC(=O)N(c2ccc(F)c(Cl)c2)C1 (stereo not drawn),7%
CCOC(=O)C1CCN(S(=O)(=O)c2ccc(OCC)cc2)CC1,-1%
CC(CCC(=O)O)C1CCC2C3CC(O)[C@@H]4CC(O)CC[C@]4(C)C3CC[C@@]12C (stereo partly drawn),0%
CCOC(=O)C1CCN(C(=O)CSCc2nc(-c3ccc(OCC)cc3)oc2C)CC1,-24%
CN1CCCC(OC(=O)c2cc(Br)ccc2Cl)C1 (stereo not drawn),7%
COc1cccc(NC(=O)c2ccco2)c1,-1%
O=C1OCCC1Sc1nnc(-c2cccs2)n1Cc1ccccc1 (stereo not drawn),13%
O=C(COC(=O)c1ccc(Oc2ccccc2)cc1)Nc1nnc(-c2ccccc2)o1,-2%

# Single values from above.
# Value of COc1ccc(S(=O)(=O)Nc2cccc(NC(C)=O)c2)cc1 in HSD17B inh: 9%
# Value of O=C(Cn1cc2c(n1)CCCC2)NCc1ccccn1 in HSD17B inh: 10%
# Value of CCOC(=O)C1CCN(C(=O)CSCc2nc(-c3ccc(OCC)cc3)oc2C)CC1 in HSD17B inh: -24%

# An excerpt; the hit share may differ from the screen's.
